RecA intein inh = Mtb RecA intein splicing inhibition; P9WHJ3; cell-free RecA intein splicing, fluorescence; inhibition, %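 (about 9 µM by stock and volumes)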; 290,000 compounds, 0.75% hits; AID 2221; in the data active = inhibition above about 30%;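 note: 0% = vehicle wells and 100% = reference inhibitor control wells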
Target sequence (P9WHJ3 whole entry, looked up): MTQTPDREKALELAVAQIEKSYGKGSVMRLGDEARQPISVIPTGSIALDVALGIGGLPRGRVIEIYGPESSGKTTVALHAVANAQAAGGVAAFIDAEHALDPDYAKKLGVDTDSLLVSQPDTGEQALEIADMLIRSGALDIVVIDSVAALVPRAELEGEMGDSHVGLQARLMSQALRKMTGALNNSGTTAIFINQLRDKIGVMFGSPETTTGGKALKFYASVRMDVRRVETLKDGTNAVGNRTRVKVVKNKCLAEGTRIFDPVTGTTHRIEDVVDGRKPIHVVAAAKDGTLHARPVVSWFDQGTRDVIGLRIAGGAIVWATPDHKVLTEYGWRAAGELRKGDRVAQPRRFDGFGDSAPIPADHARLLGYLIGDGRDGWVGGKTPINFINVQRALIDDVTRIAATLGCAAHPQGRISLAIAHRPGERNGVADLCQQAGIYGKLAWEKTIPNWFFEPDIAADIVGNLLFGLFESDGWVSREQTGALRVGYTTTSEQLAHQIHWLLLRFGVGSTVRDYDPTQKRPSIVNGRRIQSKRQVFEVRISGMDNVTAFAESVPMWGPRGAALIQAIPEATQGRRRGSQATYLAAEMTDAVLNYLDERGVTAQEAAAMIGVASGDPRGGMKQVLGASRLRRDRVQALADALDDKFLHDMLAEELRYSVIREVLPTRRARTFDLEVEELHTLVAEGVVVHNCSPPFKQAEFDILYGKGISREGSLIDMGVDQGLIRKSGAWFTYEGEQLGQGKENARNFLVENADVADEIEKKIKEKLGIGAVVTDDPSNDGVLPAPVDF
YopH PTP inh = inhibitors of Yersinia enterocolitica YopH tyrosine phosphatase | fluorescence Ex485/Em525 | 140,000 compounds, 0.16% hits | inhibition, %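 (about 10 µM by stock and volumes)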;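 active = inhibition of 50% or more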;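 note: controls were vehicle for no effect and minimum signal wells for full effect; inactives centre near -20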
Arbovirus anti = antivirals against arbovirus infection; arbovirus infection cell-based antiviral screen; inhibition, % at 10 µM; 200,000 compounds, 0.37% hits;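 active = inhibition from about 30%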;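 note: bluetongue infection of BSR cells; cell survival read as ATP light after 72 h; 0% = infected wells without compound and 100% = uninfected wells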
Mtb betalactam = beta-lactam sensitization of Mtb H37Rv; M. tuberculosis H37Rv growth with meropenem, percent inhibition; hits of this screen are not shown here; inhibition, % at 25 µM; 330,000 compounds, 0.27% hits; AID 434955;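 active = about 74% or more and at least 40 points above the plate without the antibiotic, then above 30% in a dose series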;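 note: growth measured after seven days incubation then overnight dye step; 0% = bacteria only wells and 100% = bacteria with antibiotic; twin plates without the antibiotic show which effects depend on it; some results filed as inactive read as strong as hits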
Mtb H37Rv = M. tuberculosis H37Rv growth inhibitors, H37Rv strain (AID 1626). M. tuberculosis H37Rv growth inhibition; higher % means a stronger effect. inhibition, % at 10 µM, or IC50 in µM where a hit was titrated. 220,000 compounds, 0.95% hits;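 active = confirmed in a dose series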;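 note: bacteria incubated seven days before Alamar blue readout; 0% = bacteria only wells and 100% = bacteria with antibiotic wells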
Arbovirus anti repeat = recorded beside Arbovirus anti, whose call it bears; inhibition, %; measured here: 10K subset replicate screen; many hits read low in the repeat;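 first of two repeat runs on a subset; 0% = infected and 100% = uninfected wells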
The depositor's hits bear a star; . = no result given; & = joins results of further samples. Only part of the results is shown; count on the stated rates, not on these rows.

SMILES	RecA intein inh	YopH PTP inh	Arbovirus anti	Mtb betalactam	Mtb H37Rv	others
Cc1ccc(-n2nc3c(N4CCC(C(=O)NCc5ccc(C)o5)CC4)nnc(C)c3c2C)cc1	6.5	.	.	69	.
CCOCCCNC(=O)C(NC(=O)c1ccc(NC(C)=O)cc1)c1ccccc1 (stereo not given)	-3.4	-21	5	3	2%
Clc1cccc(COn2c(-c3ccc(Cl)cc3Cl)nc3ncccc32)c1	23	24	-20	-5	4%
COc1ccc(-c2nnc(SCC(=O)N3CCCCC3)o2)cc1	-1.7	.	.	2	.
CC1CCN(C(=O)CSc2nc(N)c3c4c(sc3n2)CN(C)CC4)CC1	-3.9	9	5	.	-1%	Arbovirus anti repeat=2
COc1cc(C=O)ccc1OCC(=O)NC(C)(C)C	2.0	.	5	2	1%
O=C(COc1ccc2ccccc2c1Br)Nc1cccnc1	-0.5	.	.	5	.
Cc1cc(=O)[nH]c(SCC(=O)Nc2ccc(F)cc2)c1C#N	5.7	.	1	-2	0%
CCN(CC)C(=S)SCC(=O)NC12CC3CC(CC(C3)C1)C2	2.6	-10	-1	7	0%
O=C(CCc1nnc(-c2ccc3c(c2)OCO3)o1)N(Cc1ccncc1)CC1CCCO1 (stereo not given)	.	.	0	-5	0%
Cc1ccc(NC(=O)c2c(C)nn(-c3ccccc3)c2Cl)c(C)c1	2.7	-39	6	51	8%
CC(=O)c1ccc(NC(=O)C2CCCN2S(=O)(=O)c2cccs2)cc1 (stereo not given)	-2.9	.	.	1	.
O=C(Nc1ccncc1)C1CCC(CNS(=O)(=O)c2cccc3nsnc23)CC1 (stereo not given)	1.2	.	.	-3	5%
COCCCNC(=O)Cn1cc(/C=C(\C#N)C(=O)NC2CCCC2)c2ccccc21	-3.8	.	.	6	.
c1ccc(-c2nc3ccccc3s2)nc1	-0.7&-1.4	-51	-7	7&20	6%&4%
CC1(C(=O)N2CCC(CC3CC(c4ccc(Cl)cc4)=NO3)(C(=O)NCC3CCCCC3)CC2)CC1 (stereo not given)	5.3	.	.	73	.
Cc1cnc(NC(=O)CN2CCCCC2)s1	-1.6	.	.	3	.
Cc1cc(C(=O)N2CCC3(CC2)OCCO3)no1	-4.5	.	.	-6	.
CN(C)S(=O)(=O)c1ccc(NC(=O)CN2C(=O)NC3(CCCC3)C2=O)cc1	-1.0	.	.	3	.
CCSc1nc2ccccc2n1C(=O)/C=C\c1ccc(OC)c(OC)c1	-2.4	-46	-29	27	7%
COC(=O)c1ccc(CN2CCN(Cc3ccccc3)CC2)cc1	1.4	-44	1	1	-9%	Arbovirus anti repeat=-6
Cn1cccc1Cc1nnc(SCC(=O)N2CCc3ccccc32)n1-c1ccc(F)cc1	-0.8	-27	-7	1	0%
CCOC(=O)C1=C(COC(=O)COc2ccc(Br)cc2)NC(=O)NC1C (stereo not given)	2.1	.	.	-5	.
CC(C)c1nc2oc3c(NCC4CCCO4)ncnc3c2c2c1COC(C)(C)C2 (stereo not given)	-2.5	-35	-10	.	.
Cc1cc(C)cc(C(=O)N2CCN(Cc3ccc4c(c3)OCO4)CC2)c1	-2.9	.	.	-4	.
CCCCn1c(=O)[nH]c(=O)c2c1nc(-c1ccc(-c3ccc(F)cc3)o1)n2C	-1.2	.	.	21	3%
Nc1c(C(=O)c2ccc(Cl)cc2)sc2nsc(SCCN3CCOCC3)c12	-2.7	.	.	4	6%
C=CCNC(=O)c1c[nH]c2ccc(S(=O)(=O)N(C)c3ccc(OCC)cc3)cc2c1=O	-3.1	.	.	-3	.
CCOC(=O)C1=C(c2ccccc2)Nc2ncnn2C1c1ccc(O)cc1 (stereo not given)	-9.9	.	.	-1	-7%
CC1(C)Cc2c(sc3ncn4c(=S)[nH]nc4c23)CO1	3.0	.	20	7	1%
COc1cccc(CNC(=O)CC2Sc3ccccc3NC2=O)c1 (stereo not given)	-2.4	.	-6	-4	7%
COc1ccc(S(=O)(=O)Nc2ccccc2OC)cc1NC(=O)c1cc2ccccc2oc1=O	1.1	-24	-14	45	20%
O=C(O)/C(=C\c1ccco1)NC(=O)c1cccc2ccccc12	0.7	-8	5	-1	-3%
COc1cc(CSc2nnnn2-c2ccc(C)cc2)cc(OC)c1OC	0.5	-41	13	1	-6%
COc1ccc(OC)c(C(=O)CC2OC(=O)c3ccccc32)c1 (stereo not given)	.	-27	3	-3	-8%
Cc1ccc(C(=O)Oc2ccccc2N2C(=O)C3CCCCC3C2=O)cc1 (stereo not given)	2.0	-50	5	13	.
CC(=O)c1cccc(N(CC(=O)NC2CCCCC2)C(=O)CCC(=O)Nc2nc(C)cs2)c1	2.4	.	.	-7	.
CCc1nnc(NC(=O)CSc2nnnn2-c2cccc(C(C)=O)c2)s1	2.1	.	-4	36	2%
CCOC(=O)c1c(N2CCN(c3ccccc3)CC2)cc(C)nc1C	1.0	.	.	-3	.
CCn1c(=S)sc2c(=O)n(CC(=O)Nc3cc(OC)ccc3OC)c(C)nc21	2.4	.	.	0	.
CC1(C)OC(c2ccccc2)=C/C(=C/C=C2C(=O)NC(=O)NC2=O)O1	-2.8	.	6	11	2%
CC1=C(C(=O)NCCCOC(C)C)C2(CCC(C)CC2)OC1=O (stereo not given)	-0.4	-26	5	1	-2%
Cn1c(CSCc2ccc(Cl)cc2)n[nH]c1=S	0.9	.	4	-4	5%
COc1cc(/C(C)=N/Nc2ccc(C(=O)O)cc2)cc(OC)c1OC	-1.7	-21	2	12	3%
Cc1cc(C)c2nc(N3CCC(C(=O)N4CCCC4)CC3)sc2c1	2.6	-36	-9	2	-4%
OC[C@H]1O[C@@H](Oc2cc(O)cc(/C=C/c3ccc(O)cc3)c2)[C@H](O)[C@@H](O)[C@@H]1O	13	.	-2	2	-3%&-3%
COc1cccc(OC)c1OCCCNC1CCCC1	-0.1	.	.	-20	.
COc1ccc(CSCC(=O)NCCC(C)C)cc1	.	.	4	-4	1%
Cc1nn(-c2ccccc2)c(C)c1NC(=O)COC(=O)c1cccc(OC(F)F)c1	-0.2	.	.	-14	.
CCCC(=O)Nc1nnc(-c2ccc3c(c2)OCCO3)o1	-3.5	.	7	87	57%
(listing goes on)
SMILES	RecA intein inh	YopH PTP inh	Arbovirus anti	Mtb betalactam	Mtb H37Rv	others
CS(=O)(=O)N1CCN(c2ccc([N+](=O)[O-])c(SCc3ccco3)c2)CC1	0.1	.	6	0	4%
COc1ccc(-c2nc(NC(=O)c3ccc(OCC(=O)N4CCOCC4)c(OC)c3)sc2C)cc1	-1.9	-30	45*	1	40%
CCCCCn1c(C(Cc2ccccc2)NC(=O)COC)nc2ccccc21 (stereo not given)	7.5	-3	-11	7	5%
Clc1cccc(OCCn2cncn2)c1Cl	.	-22	3	-3	-1%
CCN(CC)CCCn1c(=S)[nH]c2ccccc2c1=O	4.7	10	5	-2	-11%
CCN(CC)c1ccc2cc(/C(N)=N/NC(=O)c3cccs3)c(=O)oc2c1	-15	.	.	14	12%
CCC(=O)N1CCc2cc(S(=O)(=O)NC(Cc3ccccc3)C(=O)NC3CCCC3)ccc21 (stereo not given)	0.7	-24	-3	-6	-13%
Cc1cc(C(F)(F)F)nn1CC(=O)NNC(=S)Nc1ccc(Cl)cc1	-1.6	-20	-3	-10	0%
CCOc1ccccc1N1CC(C(=O)Nc2ccccc2N2CCCC2)CC1=O (stereo not given)	0.4	.	.	-10	.
O=C(O)c1ccc(S(=O)(=O)c2ccc(Sc3ccc(C(=O)O)c(C(=O)O)c3)cc2)cc1	-3.3	.	9	0	-21%
CSCCC(NC(N)=O)C(=O)Nc1cccc(S(=O)(=O)N2CCOCC2)c1 (stereo not given)	-2.0	.	2	0	1%
CCCCCCCCCCOC(=O)Cn1c(COc2ccccc2OC)[n+](C)c2ccccc21	49*	.	.	54	.
CCOc1cccc(OCCOCCn2cnc3ccccc3c2=O)c1	0.2	8	9	-4	-9%
COc1ccc(-c2nnc(NC(=O)c3ccc4c(c3)OCCO4)o2)cc1	-1.2	.	.	93	.
O=C(O)c1ccc(Cl)c(S(=O)(=O)Nc2ccc(S(=O)(=O)Nc3cccc(Cl)c3)cc2)c1	-1.3	.	.	-1	.
CCC(C)NC(=O)c1ccccc1NC(=O)CN1C(=O)c2ccccc2S1(=O)=O (stereo not given)	-9.2	3	4	7	-14%	Arbovirus anti repeat=1
Cc1occc1-c1nnc(SCC(=O)N2CCOCC2)n1CC(C)C	8.3	-26	13	-4	-6%
O=C(COc1ccccc1Cl)N1CCN(c2ccc(F)cc2)CC1	-1.7	16	3	-5	-5%
CC(=O)COC(=O)C1CC(=O)N(c2ccc(C)c(C)c2)C1 (stereo not given)	.	.	1	-2	-6%
Cn1cnnc1Sc1cc(N2CCN(S(=O)(=O)c3ccc4ccccc4c3)CC2)ccc1[N+](=O)[O-]	-0.3	-16	0	-1	.

Brought forward from above: four compounds; new compounds follow.
SMILES	RecA intein inh	YopH PTP inh	Arbovirus anti	Mtb betalactam	Mtb H37Rv	others
Cc1occc1-c1nnc(SCC(=O)N2CCOCC2)n1CC(C)C	8.3	-26	13	-4	-6%
O=C(COc1ccccc1Cl)N1CCN(c2ccc(F)cc2)CC1	-1.7	16	3	-5	-5%
CC(=O)COC(=O)C1CC(=O)N(c2ccc(C)c(C)c2)C1 (stereo not given)	.	.	1	-2	-6%
Cn1cnnc1Sc1cc(N2CCN(S(=O)(=O)c3ccc4ccccc4c3)CC2)ccc1[N+](=O)[O-]	-0.3	-16	0	-1	.
CCOc1ccccc1NC(=O)c1nnn(CC(=O)Nc2ccc3c(c2)OCO3)c1N	-3.8	.	.	1	.
CC(=O)NC(=S)Nc1ccccc1C(=O)Nc1ccccc1	-4.8	-4	14	-6	1%
CC1(c2cccc(Br)c2)NC(=O)N(CC(=O)Nc2ccc(S(N)(=O)=O)cc2)C1=O (stereo not given)	0.4	.	.	5	.
Cn1c(=O)[nH]c(=O)c2[nH]c(CN3CCN(Cc4ccccc4)CC3)nc21	1.3	.	2	-3	2%	Arbovirus anti repeat=-2
C=CCn1c(O)c(C(C)=NCCC(c2ccccc2)c2ccccc2)c(=O)[nH]c1=O	2.3	-19	2	2	5%
Cc1cc(=O)n2c3ccccc3n(CC(O)CN3CCN(CCO)CC3)c2c1C#N (stereo not given)	-0.6	.	4	-2	1%
O=C(c1cccnc1)N1CCN(c2ccc3ccccc3n2)CC1	-4.4	.	-1	-1	-6%
Cc1ccc(NC(=O)C(C)OC(=O)c2ccc(NS(=O)(=O)c3ccc(F)c(F)c3)cc2)cc1 (stereo not given)	-0.7	-46	8	0	-2%
Cc1ccc(OCc2nnc(SC(C)C(=O)O)n2-c2ccccc2)cc1 (stereo not given)	5.0	.	.	-7	.
Cc1ccc(N2CC(NS(=O)(=O)c3cc(F)ccc3F)CC2=O)cc1C (stereo not given)	-0.2	.	.	-1	.
CCCc1nc(SCc2ccccc2Cl)n[nH]1	1.8	1	6	2	12%
COCCNC(=O)c1c(NC(=O)c2nc(SC)ncc2Cl)sc2c1CCCC2	-0.4	-31	-7	4	-6%
COc1ccccc1N1CCN(CC(=O)Nc2ccc(CN3CCCCC3)cc2)CC1	-1.7	-3	5	-7	1%
Cc1ccc(Cl)cc1NC(=O)c1ccccc1OCC(=O)N1CCOCC1	-0.9	.	.	2	.
CC(C)c1ccc(/C=N/NC(=O)c2nnn(-c3nonc3N)c2CN2CCOCC2)cc1	-1.2	.	.	5	.
FC(F)(Cl)c1nnc2ccc(Sc3ccccn3)nn12	-1.5	.	7	-2	1%
CC1CCN(c2nnc(-c3ccccc3)c3ccccc23)CC1	12	.	-13	14	8%
O=C(CN1CCN(S(=O)(=O)c2ccc(F)cc2)CC1)Nc1cc(C(F)(F)F)ccc1Cl	-1.4	-12	5	1	2%
Cc1cccc(NC(=O)Nc2ccc(OCc3ccccc3)cc2)n1	-0.8	.	.	-2	.
CN1CCN(c2nc(C#N)cc(-c3ccccc3)n2)CC1	1.0	-21	11	-4	4%
O=C(NCCO)c1ccc2c3n(nc2c1)-c1ccc(Cl)cc1CO3	-8.8	.	.	0	-18%
Cc1ccc(N2CC(C(=O)NCCC(C)C)CC2=O)cc1 (stereo not given)	2.5	-7	3	-11	-8%

Taken from above, six compounds:
SMILES	RecA intein inh	YopH PTP inh	Arbovirus anti	Mtb betalactam	Mtb H37Rv	others
Cn1c(=O)[nH]c(=O)c2[nH]c(CN3CCN(Cc4ccccc4)CC3)nc21	1.3	.	2	-3	2%	Arbovirus anti repeat=-2
C=CCn1c(O)c(C(C)=NCCC(c2ccccc2)c2ccccc2)c(=O)[nH]c1=O	2.3	-19	2	2	5%
Cc1cc(=O)n2c3ccccc3n(CC(O)CN3CCN(CCO)CC3)c2c1C#N (stereo not given)	-0.6	.	4	-2	1%
O=C(c1cccnc1)N1CCN(c2ccc3ccccc3n2)CC1	-4.4	.	-1	-1	-6%
Cc1ccc(NC(=O)C(C)OC(=O)c2ccc(NS(=O)(=O)c3ccc(F)c(F)c3)cc2)cc1 (stereo not given)	-0.7	-46	8	0	-2%
Cc1ccc(OCc2nnc(SC(C)C(=O)O)n2-c2ccccc2)cc1 (stereo not given)	5.0	.	.	-7	.

Compound activity (PubChem)
